# PABP polyA inh: PABP-poly(A) binding inhibition. P11940. PABP-poly(A) RNA binding, fluorescence polarization. inhibition, % at 35 µM. 290,000 tested, 1% active;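 active = 50% or more with normal probe brightness, or confirmed in later tests; inconclusive = above 50% with abnormal brightness, or retests that disagree; inactive = below 50% or failed in later tests; about a fifth of its hits are not listed in these tables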;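 also: calls also rest on retests at 20 µM and on dose response follow-up; controls were probe without protein and protein plus probe with vehicle; some compounds called inactive have numbers as strong as hits; many hits fall short of the cut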
# UUG fidelity: yeast start codon fidelity modulation; S. cerevisiae UUG-firefly luciferase reporter, luminescence/redox ratio; activity score, % at 18.7 µM; 350,000 tested, 0.13% active; AID 602363;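 active = replicate mean at a twofold rise or more, about +100% in these data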;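 also: firefly luciferase made from a UUG start codon reports start codon fidelity; reporter light over untreated wells divided by growth signal over untreated wells; some hits fall short of that in this replicate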
# CSC inhib: blocks cancer stem cells. cancer stem cell-like cells viability, luminescence. inhibition, % at 7.5 µM. 300,000 tested, 1.1% active;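 active = mean at 75% or more and at least half the replicates too; inconclusive = mean and replicates disagree; tested in HMLE shEcad cells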;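 also: 0% = median of negative and 100% = median of positive control wells; the first replicate is given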
# eIF4H inh: inhibitors of RNA binding by human eIF4H | 290,000 tested, 0.94% active | Q15056 | AID 2012 | eIF4H fluorescence polarization binding assay | inhibition, % at 35 µM;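 active = 50% or more with normal probe brightness, or confirmed in later tests; inconclusive = above 50% with abnormal brightness, or retests that disagree; inactive = below 50% or failed in later tests; about a fifth of its hits are not listed in these tables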;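 also: calls also rest on retests at 20 µM and on dose response follow-up; 0% = protein and probe with vehicle and 100% = probe without protein; strong numbers were not always called active; many hits fall short of the cut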
# MT1-MMP act inh: inhibitors of human MT1-MMP activation; 360,000 tested, 0.061% active; HT1080 RFP-PRO-GFP cells, GFP/RFP ratio fluorescence, overnight; percent of plate control window, DMSO zero; P50281; AID 651647; GFP/RFP ratio change, % at 20 µM;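 active = GFP/RFP ratio change of at least 30% with cell ATP level not reduced by more than half and red fluorescence within 50% of control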; also: strong numbers were not always called active
#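 Assay system: HT1080 RFP-PRO-GFP cells | Dosing: 20 µM single dose, 1% DMSO | Incubation: Cells overnight before dosing, compound overnight, 37 °C, 5% CO2 | Evaluation: GFP/RFP fluorescence ratio | Control set: DMSO-only wells and HT1080 RFP-L50D-GFP cell wells as references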
# Rce1 inh: yeast Ras-converting enzyme inhibition. Q03530. yeast membranes, quenched prenylated peptide cleavage fluorescence. calls only. 290,000 tested, 0.27% active;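 active = fall in fluorescence gain of 50% or more versus controls, with final raw signal at or below 3038400; inconclusive = same 50% fall but final raw signal above 3038400; inactive = fall in fluorescence gain under 50%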;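 also: plate controls were neutral control wells for no effect and wells lacking membranes for full effect; tested at 10 µM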
# Target sequence (Q03530 whole entry, looked up): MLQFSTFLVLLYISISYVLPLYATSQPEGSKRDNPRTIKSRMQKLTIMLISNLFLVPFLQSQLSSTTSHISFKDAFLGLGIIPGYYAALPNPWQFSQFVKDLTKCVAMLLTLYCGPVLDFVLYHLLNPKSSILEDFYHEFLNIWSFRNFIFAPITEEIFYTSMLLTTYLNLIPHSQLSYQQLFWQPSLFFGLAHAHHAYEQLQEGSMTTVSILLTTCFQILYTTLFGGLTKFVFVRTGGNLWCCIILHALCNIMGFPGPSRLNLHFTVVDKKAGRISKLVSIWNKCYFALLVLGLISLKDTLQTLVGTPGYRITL
# Env fusion inh: inhibitors of HIV Env-mediated cell fusion; HeLa-JRFL Env/CEM21 cell fusion, luciferase; inhibition, % at 12.3 µM; 360,000 tested, 1.1% active;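 active = mean replicate inhibition score of at least 50 and every replicate individually at or above 50; inconclusive = only one of the two criteria met; inactive = mean below 50 and not all replicates reaching 50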;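 also: 0% = plate neutral controls and 100% = maraviroc near 300 nM; one replicate is shown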
# eIF4H inh retest: further read-out of eIF4H inh, marked with its call; inhibition, %; compound at 20 µM; confirmation average;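 mean of two retest wells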
# PABP polyA inh retest: second read-out of PABP polyA inh, no call of its own (marks repeat the call); inhibition, %; compound at 20 µM; confirmation repeats;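 mean of two retest wells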
# MT1-MMP act inh RFP: recorded beside MT1-MMP act inh, whose call it bears; RFP signal change, %; measured here: RFP expression control read;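 0 = vehicle wells; hits needed this value within 50% of zero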
# * hit, by the source's call; i = inactive; u = inconclusive; x = not tested or not shown.
SMILES,PABP polyA inh,UUG fidelity,CSC inhib,eIF4H inh,MT1-MMP act inh,MT1-MMP act inh RFP,Rce1 inh,Env fusion inh,others
Cc1ccc(N(CC(=O)NCc2ccccc2)S(=O)(=O)c2c(C)noc2C)cc1,10,-1,2,-11,2,3,i,0,
CC(=O)Nc1ccc(NC(=O)c2ccc(N(Cc3ccccc3C)S(C)(=O)=O)cc2)cc1,x,x,1,x,2,-1,i,2,
CC(C)c1ccccc1NC(=O)c1cccnc1,-3,-13,-1,8,2,7,i,x,
CCn1c(O)c(C=NCc2ccccc2)sc1=S,-12,3,-8,-9,-2,-1,i,1,
O=C(Nc1ccc(O)c2c(=O)cc(-c3ccccc3Cl)oc12)c1ccc(F)cc1,-10,-6,x,1,-4,-7,i,-7,
Cc1cccc(OCCn2c(=O)sc3ccccc32)c1,8,-12,16,8,0,0,i,x,
Cc1c(C(=O)Nc2nccs2)oc2ccc(Br)cc12,x,13,-8,x,-4,-5,x,-88,
O=S(=O)(c1ccccc1Oc1ccc(Cl)cc1Cl)N1CCCCC1,-4,x,6,-4,0,-6,i,16,
Cc1cc(C)c2c(=O)[nH]c(SCc3ccccc3C)nc2n1,-4,-12,-14,-5,2,1,i,22,
O=C(N1CCOCC1)N1CCC(n2nnc3cc(F)ccc32)CC1,-4,-11,-10,13,-12,4,i,-7,
Cn1c(=O)c2c(nc(OCC3COC(C)(C)O3)n2Cc2ccccc2F)n(C)c1=O (stereo not drawn),-5,-9,-4,0,5,5,i,x,
Oc1ccc(/C=C/c2ccnc3ccccc23)cc1,-2,-21,x,-7,-19,-18,i,-82,
O=C(Cc1ccccc1)Nc1ccc(NC(=O)c2cccs2)cc1Cl,-7,x,7,-3,6,-1,i,-33,
C/C(NCC(C)(C)CN(C)C)=C(/C#N)C(=O)NCc1ccccc1,-6,-12,x,-6,-1,1,i,-16,
COc1ccccc1CNC(=O)[C@@H](NC(=O)C1CCN(C(=O)[C@@H]2CCCN2C(=O)OC(C)(C)C)CC1)C(C)C,10,3,4,6,-1,1,i,x,
CCc1ccc(S(=O)(=O)Nc2cccc(-c3ccc4nncn4n3)c2)s1,23,x,-17,0,-1,-7,i,i,
CC1=C(C(=O)Nc2ccccc2C)C2(CCCCC2)C(C(N)=O)C(=S)N1 (stereo not drawn),-11,x,-3,-1,1,4,i,-8,
COc1ccc(OC)c(/C=N\NC(=O)c2ccc(-c3ccccc3)cc2)c1,-3,-13,-2,-7,3,2,i,2,
CCNC(=O)NC(=O)CSc1nnc(-c2c[nH]c3ccccc23)o1,0,-15,-23,9,-5,-4,i,-7,
COc1cccc(-c2c(C#N)c(N)nc3c2c(C)nn3-c2ccccc2)c1O,-12,-11,-19,4,2,-4,i,17,

# A stretch taken from the entries so far:
SMILES,PABP polyA inh,UUG fidelity,CSC inhib,eIF4H inh,MT1-MMP act inh,MT1-MMP act inh RFP,Rce1 inh,Env fusion inh,others
COc1ccc(OC)c(/C=N\NC(=O)c2ccc(-c3ccccc3)cc2)c1,-3,-13,-2,-7,3,2,i,2,
CCNC(=O)NC(=O)CSc1nnc(-c2c[nH]c3ccccc23)o1,0,-15,-23,9,-5,-4,i,-7,
COc1cccc(-c2c(C#N)c(N)nc3c2c(C)nn3-c2ccccc2)c1O,-12,-11,-19,4,2,-4,i,17,

# Following part
SMILES,PABP polyA inh,UUG fidelity,CSC inhib,eIF4H inh,MT1-MMP act inh,MT1-MMP act inh RFP,Rce1 inh,Env fusion inh,others
Cc1ccc2nc(-c3ccc(NC(=O)CSc4nc(N)cc(=O)[nH]4)cc3)sc2c1,-2,-6,20,12,1,4,i,-115,
CCN(C(=O)c1ccc(=O)[nH]c1)c1c(N)n(Cc2ccccc2)c(=O)[nH]c1=O,x,-6,-6,x,6,2,x,2,
CO/N=C/NC(=O)c1c(OC)ccnc1Oc1ccccc1,12,-7,-3,8,4,4,i,x,
CN1CCN(C(=O)c2cccc(-c3cnc4cnc(-c5ccccc5Oc5ccccc5)cn34)c2)CC1,x,-10,x,x,-4,-6,x,0,
Cn1nnnc1SCc1ccc(CSc2nnnn2C)cc1,-3,x,-22,-3,5,0,i,-10,
CN1CCN(C(=O)N2CCNC2=O)CC1,16,x,5,-12,-2,3,i,-45,
COc1ccccc1/C=C1\SC(=O)N(CCC(=O)N(C)C2CCS(=O)(=O)C2)C1=O (stereo not drawn),8,-2,-4,-10,0,-1,i,-19,
CCc1ccc(CC(=S)N2CCOCC2)cc1,-10,-20,3,6,4,5,i,-8,
CCOc1ccccc1N1CCN(C(=S)Nc2ccc(S(N)(=O)=O)cc2)CC1,-1,x,-4,3,1,-6,i,36,
COC(=O)c1cnc(NC(=O)C2(C)CCN2C(=O)C(C)C)s1 (stereo not drawn),x,-11,x,x,-1,1,x,-42,
COc1ccccc1C(=O)NCC(=O)N/N=C/c1ccc2c(c1)OCO2,11,-19,1,-6,-5,-1,i,-34,
COc1cc(C#N)ccc1OC(=O)c1cccc(S(=O)(=O)N2CCN(C)CC2)c1,x,-4,6,x,-1,0,i,x,
COc1cc2cc[n+](Cc3ccc([N+](=O)[O-])cc3)cc2cc1OC,-1,-15,-15,0,x,x,i,8,
O=C(O)Cc1ccc(NC(=O)Nc2ccc(Br)cc2)cc1,14,x,-7,2,4,4,i,7,
CCOC(=O)C1(C)CCN1C(=O)c1ccccc1 (stereo not drawn),x,-14,x,x,3,6,x,-15,
O=C(NCC1CCCO1)c1ccc(Oc2ccc([N+](=O)[O-])cc2Cl)cc1 (stereo not drawn),2,x,-4,-2,1,-4,i,19,
CCOc1cc(/C=C(\C#N)C(=O)Nc2cccc(C(=O)O)c2)ccc1OCc1ccccc1Cl,10,6,5,13,1,-3,x,-40,
CC1(C2CC2)NC(=O)N(CC(=O)Nc2ccc(OC(F)F)cc2)C1=O (stereo not drawn),x,-35,x,x,7,4,x,15,
COc1ccc(-c2noc3c2-c2nc(-c4ccc(Cl)cc4)sc2CC3)cc1,-1,-13,26,6,3,2,i,-1,
O=C(OCC(=O)N1CCCC1)c1ccc(OC(F)(F)F)cc1,-6,x,-3,-8,-2,0,x,3,
CC1CC(C)CN(CCCNC(=O)CN2C(=O)CSc3ccc(S(=O)(=O)N4CCOCC4)cc32)C1 (stereo not drawn),-10,4,-10,8,0,3,i,6,
N#CC1=C(C=Nc2ccccc2O)CCC1,1,-2,-2,-2,-5,-2,i,-15,
O=C(CSc1ncn[nH]1)Nc1ccc2c(c1)CCC2,5,-18,-8,-5,0,-3,i,-37,
CCc1nc2ccc(C(=O)N3CCN(S(=O)(=O)CC)CC3)cn2c1N(C)Cc1cccs1,x,3,x,x,-2,3,x,-6,
Cc1ccc(C(C)C)c(O)c1C(=O)O,x,-17,x,x,2,3,x,-4,
Cc1ccc(CNC(=S)Nc2ccc(NS(=O)(=O)c3ccc(C)cc3)cc2)cc1,-4,-13,11,2,4,-3,i,14,
CCC(Sc1nc(=O)cc(N)n1-c1cccc(C)c1)C(=O)Nc1cc(C)on1 (stereo not drawn),8,2,-7,1,x,x,i,x,
CCOC(=O)c1c(S(=O)(=O)Nc2cccc(Cl)c2)c(C)n(C)c1C,7,-3,-3,8,2,2,i,23,
CC(=O)c1c(C)[nH]c(C(=O)OCC(=O)N2CCCC2=O)c1C,x,-13,-10,x,-1,3,x,-9,
O=C(NC1CCCC1)c1cccc2c1C(=O)c1ccc(Cl)cc1S2(=O)=O,x,-22,-9,x,2,4,x,-16,
CCCC(=O)NC(c1ccc2c(c1)OCO2)c1cc(Cl)c2cccnc2c1O (stereo not drawn),-16,x,113*,24,-25,-10,i,x,
N/C(CCS(=O)(=O)c1ccc(Cl)cc1)=N\OC(=O)c1ccccc1C(F)(F)F,-2,x,10,2,3,-1,x,17,
Cn1c(=O)[nH]c(=O)c2c1nc(SCCO)n2CC(O)COc1ccccc1 (stereo not drawn),-1,x,0,-5,-1,5,i,-9,
CCCCNC(=O)CO/N=C(\C)c1cc2ccccc2o1,u,9,-2,9,1,-1,i,-24,
CC1CC(C)CN(C(=O)c2ccc3c(=O)n(Cc4ccc5c(c4)OCO5)c(=S)[nH]c3c2)C1 (stereo not drawn),-10,-18,-1,-9,-7,-19,i,12,
Cc1cc(OCC(=O)Nc2ccccc2C)no1,x,-9,4,x,-2,0,x,-2,
Cc1cc(Cn2nc(C(=O)NCc3cccc(C(F)(F)F)c3)cc2-c2ccccc2)on1,x,-18,15,x,2,0,x,-5,
CC1(C)CC(=O)C(CSC(=O)c2ccccc2)C(=O)C1,x,-38,x,x,-7,0,x,4,
CCN(C(=O)c1cnc2scc(C)n2c1=O)c1ccccc1C,4,-13,2,-4,2,2,i,10,
Cc1ccc(Cl)cc1N1CCN(S(=O)(=O)c2cnc[nH]2)CC1,2,-17,6,-6,5,4,i,-81,
CC(=O)Nc1ccc(S(=O)(=O)NCCNC(=O)c2ccccc2F)cc1,5,-12,-7,-4,-1,-2,i,-13,
CCCn1c(CC)nc([N+](=O)[O-])c1S(=O)(=O)c1ccccc1,-4,-22,26,-8,5,0,i,44,
CCc1cccc(C)c1NC(=S)NCCc1c(C)[nH]c2ccc(C)cc12,26,-11,5,-5,-6,-9,i,-26,
CCOC(=O)c1[nH]c2ccc(F)cc2c1NC(=O)CN1CCN(C/C=C/c2ccccc2)CC1,-9,-2,38,-6,12,-8,i,x,
CC1CCN(C(c2cccs2)c2nnnn2Cc2ccccc2)CC1 (stereo not drawn),18,-18,5,71,-12,-11,i,9,eIF4H inh retest=27;PABP polyA inh retest=38
CC(=O)Nc1ccc2nc3ccccc3nc2c1,36,x,-5,35,-7,4,i,-39,
N#CCCCn1c(-c2ccccc2)noc1=O,-5,-8,-19,-4,5,4,i,-21,
CCOc1ccc(S(=O)(=O)Nc2c(C)n(C)n(-c3ccccc3)c2=O)cc1,-6,-11,-5,14,2,5,i,-4,
C[C@@H]1CN([C@@H](C)CO)C(=O)Cc2cc(NC(=O)Nc3ccc(F)cc3)ccc2O[C@@H]1CN(C)Cc1ccc(Cl)c(Cl)c1,x,11,x,x,-1,-9,x,14,
CCc1cc(=O)oc2cc(OCC(=O)N3CCC(C(N)=O)CC3)ccc12,3,-1,-15,-4,4,3,i,x,
COc1ccc(NC(=O)CSc2nc(O)cc(=O)[nH]2)c(OC)c1,8,-4,-26,-9,3,5,i,-8,
O=C(CC(=O)c1c(F)cccc1Cl)c1ccccc1O,-2,-15,3,-6,0,-5,i,12,
COc1ccccc1-c1ccc(NC2CCCCC2)nn1,-5,x,-2,-2,3,2,i,x,
COc1ccc([N+](=O)[O-])cc1N(CC(O)Cn1nnc2ccccc21)S(=O)(=O)c1ccc(C)cc1 (stereo not drawn),2,-11,-12,-6,1,-4,i,21,
CCCCNC(=O)Nc1nc2ccccc2s1,-5,x,2,-3,1,2,i,-35,
Cc1cc(C)n(S(=O)(=O)c2ccc(C(C)(C)C)cc2)n1,4,-33,x,-4,0,2,i,-38,
Cc1cccc(OCC(=O)Nc2ccc(C(=O)Nc3ccccc3C(=O)O)cc2)c1,x,-41,x,x,1,5,x,13,
Oc1ccc(Br)cc1C=Nc1ccc(Cl)cc1,-6,x,37,6,1,2,i,-17,
COc1ccccc1NC(=S)NCCC(c1ccccc1)c1ccccc1,3,x,-2,0,3,-1,i,13,

# Screens deposited in PubChem by several laboratories.

# Random draw from the library; about 3% have a hit in one of these screens.
